High-throughput results as filed in PubChem BioAssay.
RE007 growth inh: less growth of the S. pombe RE007 Vpr strain. S. pombe RE007 Vpr strain, BacTiter-Glo ATP luminescence, 24 h; control for the full effect not named in the record. Potency, µM (doses to about 92.2 µM), without a hit: top-dose activity change, negative = less growth. 360,000 tested, 0.21% active. AID 651644; active = well fitted falling curve with a large enough effect; inconclusive = small, poorly fitted or top-dose-only effect; inactive = no such curve, though single readings can be large or run the other way;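 further: on the % scale 0 is the no-effect control and ±100 the full control effect; nearly all actives have a fitted effect of over 50% in size; the assay follows cell death caused by Vpr and the record does not say whether a fall means rescue or toxicity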
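Fission yeast strain RE007, carrying one chromosomally integrated HIV-1 vpr copy, was seeded at OD 0.01 in PMG+AL medium with 23 nL pinned compound. After 24 h at 30 °C and 99% humidity, viability was read by BacTiter-Glo luminescence.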
Cruzain noTriton: blocks cruzain activity in detergent-free assay; P25779; purified cruzain, Z-FR-AMC fluorescence, no detergent; Potency, µM, inactives show max response, negative = inhibition, usual class: inhibitors; 200,000 tested, 2.3% active; active means well fitted curve in the direction sought with a large enough effect; inconclusive means small, poorly fitted or top-dose-only effect, or another doubt; inactive means no such curve, though single readings can be large; an effect the other way counts as inactive or inconclusive;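 further: plate controls were enzyme without inhibitor for no effect and buffer without enzyme for full effect; nearly all actives have a fitted effect of over 40% in size; top concentration of the series not given in the record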
Target sequence (P25779 123-467 limits assumed): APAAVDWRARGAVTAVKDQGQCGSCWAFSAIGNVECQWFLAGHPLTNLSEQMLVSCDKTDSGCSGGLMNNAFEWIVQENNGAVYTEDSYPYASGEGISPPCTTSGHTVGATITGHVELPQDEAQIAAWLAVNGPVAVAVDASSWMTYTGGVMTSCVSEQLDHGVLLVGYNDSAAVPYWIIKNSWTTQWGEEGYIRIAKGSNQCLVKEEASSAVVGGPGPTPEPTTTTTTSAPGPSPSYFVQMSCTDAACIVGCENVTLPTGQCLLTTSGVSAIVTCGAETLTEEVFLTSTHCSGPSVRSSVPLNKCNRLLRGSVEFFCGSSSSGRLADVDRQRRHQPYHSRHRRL
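Purified cruzain at 1.5 nM, pre-incubated 15 min with compound at room temperature in 100 mM sodium acetate pH 5.5, 5 mM DTT, 0.00005% Triton X-100. Reaction started with 2 uM Z-FR-AMC; AMC fluorescence increase over 60 s gives rate.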
Marburg entry inh: Marburg virus entry inhibition; Potency, µM (top dose mostly 37.8 µM), for inactives: at the highest dose activity change, negative = inhibition, most hits filed as inhibitors; 300,000 tested, 1.8% active; Marburg virus pseudotyped entry inhibition, cell reporter; control for the full effect not named in the record; about a third of the inactives were read at about 46 µM; AID 540276; active = well fitted inhibition curve with a large enough effect; inconclusive = small, poorly fitted or top-dose-only effect, or effect the other way; inactive = flat fitted curve, though single readings scatter; tested in HEK293 cells; about a fifth of its hits are not listed in these tables; further: on the % scale 0 is the no-effect control and ±100 the full control effect; luciferase read-out
Lassa entry inh: blocks Lassa virus binding to or entry into cells | Potency, µM (series often up to 37.9 µM), for the others: at the highest dose activity change, negative = inhibition, hits mostly inhibitors | 300,000 tested, 1.2% active | Lassa virus pseudotype entry inhibition, cell reporter; control for the full effect not named in the record; active means well fitted inhibition curve with a large enough effect; inconclusive means small, poorly fitted or top-dose-only effect, or effect the other way; inactive means flat fitted curve, though single readings scatter; tested in HEK293 cells; further: on the % scale 0 is the no-effect control and ±100 the full control effect; nearly all actives have a fitted effect of over 50% in size; luciferase read-out
StopGo reporter: lowers the luciferase signal of an FMDV 2A StopGo reporter | human cells with a luciferase reporter of 2A StopGo recoding; control for the full effect not named in the record | Potency, µM (titrated, usually from 57.9 µM), without a hit: at the top dose signal change, negative = less light | 410,000 tested, 1.2% active | AID 1159524; active = well fitted falling curve with a large enough effect; inconclusive = small, poorly fitted or top-dose-only effect; inactive = no such curve, though single readings can be large or run the other way; tested in HEK293T cells; further: on the % scale 0 is the no-effect control and ±100 the full control effect; nearly all actives have a fitted effect of over 45% in size; luciferase light after 4 h
NS1 inh: inhibitors of influenza NS1 protein function; AID 2326; 270,000 tested, 0.4% active; S. cerevisiae slowed by influenza A NS1, growth recovery by OD600; Potency, µM (highest dose often 46.1 µM), for the others: top-dose activity, positive = more growth; further: actives are rising curves; nearly all actives have a fitted effect of over 50% in size
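A cell-based growth assay was used: compounds that relieve NS1-induced slow growth of budding yeast raise OD600. Assay medium was yeast nitrogen base with ammonium sulphate and -URA supplement, pH 6.0, with 2% galactose.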
Cruzain Triton: cruzain (T. cruzi) inhibition with detergent | purified cruzain, Z-FR-AMC fluorescence, 0.01% Triton | Potency, µM, for inactives: max response, negative = inhibition, actives largely listed as inhibitors | 200,000 tested, 0.43% active | AID 1478; active means well fitted curve in the direction sought with a large enough effect; inconclusive means small, poorly fitted or top-dose-only effect, or another doubt; inactive means no such curve, though single readings can be large; an effect the other way counts as inactive or inconclusive;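 further: plate controls were neutral wells for no effect and buffer without enzyme for full effect; nearly all actives have a fitted effect of over 40% in size; top concentration of the series not given in the record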
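Sodium acetate buffer (100 mM, pH 5.5) containing 5 mM DTT and 0.01% Triton X-100 hosted 1.5 nM cruzain and test compound for 15 min at room temperature. Cleavage of 2 uM Z-FR-AMC was then tracked by fluorescence.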
SARS PLpro yeast: SARS-CoV PLP inhibition in yeast; 330,000 tested, 0.19% active; S. cerevisiae expressing SARS-CoV PLpro, growth rescue; control for the full effect not named in the record; Potency, µM (top dose mostly 32.9 µM), for the others: at the top dose activity, positive = growth rescue; AID 485353; further: 0% is about no effect; nearly all actives have a fitted effect of over 55% in size; growth read by luminescence after 48 h
Numbers without * were called inactive; ? = inconclusive; . = not tested or not shown; & = joins results of further samples; [ ] = dose if it differs, or a comment. Unless noted, the call rests on the fitted dose curve; in most records, active means well fitted rising curve with a large enough effect; inconclusive means small, poorly fitted or top-dose-only effect; inactive means no such curve, though single readings can be large or run the other way. Potency means the concentration at half of the fitted maximal effect.

Compound,RE007 growth inh,Cruzain noTriton,Marburg entry inh,Lassa entry inh,StopGo reporter,NS1 inh,Cruzain Triton,SARS PLpro yeast
CCOc1ccc(C(=O)N[C@H](C(=O)Nc2ccc(S(=O)(=O)Nc3nccs3)cc2)C(C)C)cc1,-1%,.,2%,?,49%[activator],.,.,2%
COC(=O)CCCC1=CC2=CC(=O)C(C)(OC(=O)C3CCCC3)C(=O)C2=CO1 (configuration not stated),1%,4%,.,.,-20%,0%,3.3%,-3%
CN(C)CCN(C(=O)c1ccc(S(=O)(=O)N2CCCC2)cc1)c1nc2ccc(Br)cc2s1,-6%,.,-47%[46.1 µM],28%[46.1 µM],2%,-15%,.,2%
CCOC(=O)C1(Cc2cccc(OC)c2)CCN(C/C=C/c2ccc(OC)cc2)CC1,-29%,.,?,?,14µM*,-6%,.,-2%
Cc1oc(-c2ccc(Cl)cc2)cc1-c1nn2c(-c3ccoc3C)nnc2s1,?,7%,2%&3%,-3%,-14%,10µM*,-5.8%,-4%
CC(=O)N1CC=CC1(C)C(=O)NCc1cc(F)cc(C(F)(F)F)c1 (configuration not stated),7%,-1%&-3%,4%,-1%,-12%,2%,1.0%&6.2%,-8%
CCOc1ccc(NC(=O)Cn2c(=O)n(CCC(=O)NCCc3ccccc3)c(=O)c3ccccc32)cc1,.,1%,2%[46.1 µM],1%[46.1 µM],7%,.,0.1%,.
COc1ccc(OC)c(/C=C2\SC(=S)N(C(C(=O)O)c3ccccc3)C2=O)c1 (configuration not stated),17%,.,.,.,31%[activator],?,.,1%
CCCn1cc(NC(=O)C2CC(c3cccc(Br)c3)=NO2)cn1 (configuration not stated),2%,-1%,-2%,-18%,.,-10%,-4.4%,2%
CCCC(=O)NC1=C(C#N)C2(CCCC2)Cc2ccccc21,8%,-5%,-16%,18%,-6%,12%,-5.6%,-9%
O=C(Nc1cccc(F)c1)C1CCN(C(=O)c2ccc(Cl)cc2)CC1,-6%,-5%,?,-13%,-15%,-18%,-3.3%,-21%
CCOC(=O)c1sc(N=NC2=C(O)CCCC2=O)c(C(=O)OCC)c1C,-10%,.,18%,-1%,13%,.,.,0%
Nc1c(-c2cccs2)cnn1-c1nc(-c2ccc(Cl)cc2Cl)cs1,3%,25µM*,?,-4%,11%,4%,0.0%,12%
O=C(CSc1nnnn1Cc1ccccc1)Nc1ccc2c(c1)OCO2,21%,-8%,-6%,-15%,26%,-6%,-1.9%,6%
O=C(O)C1CCN(Cc2oc(CO)cc(=O)c2O)C1 (configuration not stated),14%,.,8%,10%,-10%,.,.,.

Following part:
Compound,RE007 growth inh,Cruzain noTriton,Marburg entry inh,Lassa entry inh,StopGo reporter,NS1 inh,Cruzain Triton,SARS PLpro yeast
CCOC(=O)c1c(C)nc2ccc(C)cn12,-7%,8%,15%,-13%,4%,-4%,5.8%,9%
CCOn1c(=O)c(-c2ccc(C)cc2)[n+]([O-])c2ccccc21,5%,.,.,.,1%,-2%,.,0%
CNC(=O)CN(c1cc(OCCOC)c(Cl)cc1Cl)S(=O)(=O)c1ccccc1,-10%,.,4%[46.1 µM],?,-9%,.,.,2%
Cc1ccc2oc(=O)cc(CN3CC(C)OC(C)C3)c2c1 (configuration not stated),-6%,.,.,.,-12%,-2%,.,-1%
CC1CN(CCCSc2ccc(Cl)cc2)CC(C)O1 (configuration not stated),-6%,.,-25%[46.1 µM],-7%,-22%,-4%,.,1%
CC(CNC(=O)c1sc2ncccc2c1-n1cccc1)c1ccccc1 (configuration not stated),.,1%,.,-7%[46.1 µM],0%,.,-8.2%,.
COC(=O)CSc1cc(C)nc(NC(C)=O)n1,-4%,-8%,-3%,0%,-7%,6%,-2.7%,-1%
CCn1ncc(/C=N\NC(=O)c2ccc3c(c2)c(C)c(C)n3Cc2ccccc2)c1C,8%,?,?,-34%,?,22%,-11%,-1%
CN(C)c1ccccc1C(=O)N1CCC(n2nccc2NC(=O)C2CC2)CC1,-15%,.,1%[46.1 µM],0%[46.1 µM],-2%,-13%,.,-3%
CC(=O)N1CCC(C(=O)Nc2ccc3c(c2)CCC3)CC1,-5%,.,.,.,16%,3%,.,-6%
COc1ccc(C(=O)c2nccc3ccccc23)cc1,0%,.,?,23%,-23%,.,.,2%
COc1cc(C(=O)OCC(=O)N2CCNC2=O)cc(Cl)c1OC,-11%,.,3%,-2%,-22%,.,.,-4%
CC(C)C(C(=O)Nc1ccccc1F)N1C(=O)c2ccccc2C1=O (configuration not stated),9%,.,?,10%[46.1 µM],-6%,.,.,.
CC1CN(C(=O)COC(=O)[C@@H](NC(=O)c2ccccc2Cl)C(C)C)CC(C)O1 (some centres not stated),-11%,.,25%,-3%,-7%,.,.,-1%
CC[C@@]12C(=O)N(c3ccccc3)C(=O)N1[C@H](c1cccc(C)c1)[C@@H]1C(=O)N(Cc3ccccc3)C(=O)[C@@H]12,-9%,.,.,.,-8%,-4%,.,-1%

The results go on:
Compound,RE007 growth inh,Cruzain noTriton,Marburg entry inh,Lassa entry inh,StopGo reporter,NS1 inh,Cruzain Triton,SARS PLpro yeast
CCCOc1ccc(C2C(=O)N(C3CCCCCC3)CC(=O)N2CCC)cc1OC (configuration not stated),.,13%,.,-22%[46.1 µM],-2%,.,1.6%,.
Cc1cc(NC(=O)CSc2nc(C(C)C)nc3sc4c(c23)CCC(C)C4)no1 (configuration not stated),-1%,-7%,0%,-18%,0%,4%,0.0%,-8%
Cc1ccc(C)c(NS(=O)(=O)c2ccc3c(c2)Cc2cc(S(=O)(=O)Nc4cc(C)ccc4C)ccc2-3)c1,-16%,7.9µM*,?,-10%,-20%,9%,-1.1%,-10%
CCN(CC)S(=O)(=O)c1ccc(-c2nnc(SCc3nnc(-c4ccc(C)cc4)o3)o2)cc1,6%,-15%,3%&-34%,-25%,4%,-5%,2.4%,1%
Cc1nn(C)c(C(=O)NNC(=S)Nc2ccc(F)cc2)c1[N+](=O)[O-],-9%,10%,12%,-1%,3%,5%,2.1%,4%
CCOC(=O)C1=C(C)NC(=O)NC1c1cccc(OC)c1OCc1ccccc1Cl (configuration not stated),-9%,-11%,-21%,?,-20%,9%,1.8%,11%
O=C(Nc1ccc2c(c1)OCCO2)C1CCCN(S(=O)(=O)c2cnc[nH]2)C1 (configuration not stated),4%,9%,.,.,-14%,-10%,-2.2%,8%
Cc1nnc(N2CCN(c3ccccc3)CC2)[nH]c1=O,-27%,4%,-12%,-1%,-11%,2%,2.0%,-2%
CCN(C(=S)Nc1cccc(C)c1)c1ccccc1,0%,-9%,?,0%,-13%,4%,1.8%,14%
O=C(NCc1cccs1)C1CC(c2ccc(Cl)cc2)=NO1 (configuration not stated),0%,.,?,.,3%,-1%,.,-2%
CC(NC(=O)c1ccccc1)C(=O)Nc1ccccc1 (configuration not stated),-17%,.,11%,0%,-4%,.,.,.
O=C(c1ccccn1)c1ccc2ccccc2n1,0%,.,3%&3%[46.1 µM],4%,34%[activator],2%,.,1%
Cc1ccc(C)c(OCCCCn2ccnc2)c1,-10%,-22%,3%,2%,-9%,-46%,3.0%,-7%
C=CCn1c(SC(C)CC)nc(O)cc1=O (configuration not stated),9%,1%,?,1%,23%,18%,0.2%,-5%
COC(=O)CNc1cc(S(=O)(=O)N2CCCCC2)ccc1Oc1ccc(C(=O)OC)cc1,-1%,.,?,?,-27%,-20%,.,-1%

(next part)
Compound,RE007 growth inh,Cruzain noTriton,Marburg entry inh,Lassa entry inh,StopGo reporter,NS1 inh,Cruzain Triton,SARS PLpro yeast
CN(Cc1cnn(C)c1)C(=O)c1sc2cccc(Cl)c2c1Cl,-5%,?,6%,-3%,-5%,-87%,-2.8%,-15%
COc1ccc(C)cc1-n1nnnc1SCc1csc(C)n1,8%,4%,10%,-19%,36%[activator],-7%,-0.1%,7%
CCOc1ccc2ccc(OCC)c(/C=N/n3cnnc3)c2c1,-14%,.,22%,-10%,-6%,-18%,.,-4%
Cc1nnc(NC(=O)CC23CC4CC(CC(C4)C2)C3)s1,19%,.,.,.,-22%,10%,.,6%
CN1CCN(CC(O)COC(c2ccccc2)c2ccccc2)CC1 (configuration not stated),8%,.,?,-11%,-5%,.,.,0%
O=S(=O)(c1ccccc1)N1CCN(CC(O)COc2ccc3c(c2)CCC3)CC1 (configuration not stated),8%,10%,?,-14%,.,-22%,-2.6%,1%
O=C(C1CC1)N1CCc2cc(Br)cc(S(=O)(=O)NCc3ccccn3)c21,-16%,5%,6%,-6%,35%[activator],-5%,-0.8%,1%
O=C(COC(=O)CNC(=O)c1ccc(Cl)cc1Cl)NC(=O)NC1CCCCC1,-4%,.,14%,-4%,-22%,.,.,3%
